GIRK2 activ: opens human GIRK2 potassium channels; HEK293-GIRK2 thallium flux, Thallos fluorescence; 0.05% of 63,000 active; calls only for hits at 25 µM;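 active means among the strongest 0.2% of first-round signals and kept after retests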;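 further: first round at about 10 µM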
Target sequence (P48051 whole entry, looked up): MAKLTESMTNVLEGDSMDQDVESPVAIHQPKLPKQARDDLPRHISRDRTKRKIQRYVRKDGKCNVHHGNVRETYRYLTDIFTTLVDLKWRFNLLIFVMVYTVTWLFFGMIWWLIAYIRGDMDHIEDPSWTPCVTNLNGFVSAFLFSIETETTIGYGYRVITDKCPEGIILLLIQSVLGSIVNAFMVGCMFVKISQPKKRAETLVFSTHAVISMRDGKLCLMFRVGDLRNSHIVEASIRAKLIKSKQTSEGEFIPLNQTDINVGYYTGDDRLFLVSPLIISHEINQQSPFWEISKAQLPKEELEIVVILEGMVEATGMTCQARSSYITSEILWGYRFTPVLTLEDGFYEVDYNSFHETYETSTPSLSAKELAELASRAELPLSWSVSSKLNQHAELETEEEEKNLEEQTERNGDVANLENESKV
Calls only. A portion of the library; rates above refer to the full screens.

For CN(CC(=O)Nc1ccccc1C(N)=O)C(=O)c1ccc(=O)[nH]c1 the results were GIRK2 activ inactive.
CC(=O)Nc1ccc(NC(=O)Cn2nc(-c3cccs3)ccc2=O)cc1 was read as GIRK2 activ inactive.
`O=C1CCSCC(C(=O)NC2CCN(Cc3ccccc3)CC2)N1` (configuration not stated) gave GIRK2 activ inactive.
Screening CSc1nc2n(n1)C(c1cccc(F)c1)C1=C(CC(C)(C)CC1=O)N2 (configuration not stated) returned GIRK2 activ inactive.
For COCCn1c(CCO)nc2ccccc21 the results were GIRK2 activ inactive.
Screening O=C(/C=C/c1ccccc1)NCC1CCN(c2ccccn2)CC1 returned GIRK2 activ inactive.
Cc1cn2c3c(=O)n(CC(N)=O)c(=O)n(C)c3nc2n1-c1ccc(F)cc1 was read as GIRK2 activ inactive.
`Cn1cccc(C(=O)NCC(O)c2ccoc2)c1=O` (configuration not stated) gave GIRK2 activ inactive.
Screening CC(C)NC(=O)Cn1c(=O)c2oc3ccccc3c2n(CC(=O)N2CCCCC2C)c1=O (configuration not stated) returned GIRK2 activ inactive.
Screening COc1cccc(Cn2cc(S(=O)(=O)N3CCCC3)ccc2=O)c1 returned GIRK2 activ inactive.
`COc1cccc(-n2ncc3c(N/N=C\c4ccc(S(C)(=O)=O)cc4)ncnc32)c1` gave GIRK2 activ inactive.
`O=C(Cn1nnn(-c2ccc(NC(=O)Cc3cccs3)cc2)c1=O)NCc1ccco1` gave GIRK2 activ inactive.
O=S(=O)(c1cccc(Cl)c1)N1CC(Oc2nc3ccccc3s2)C1 was read as GIRK2 activ inactive.
Cc1ccccc1-n1cc(C(=O)N2CCC(NC(=O)Cc3ccc(F)cc3)CC2)nn1 was read as GIRK2 activ inactive.
COCCNC(=O)Cc1ccc(NC(=O)c2ccc(OC(F)(F)F)cc2)cc1 was read as GIRK2 activ inactive.
`COc1ccc(CC(=O)N2CCC(Cn3cnc4cc(C)c(C)cc43)CC2)cc1` gave GIRK2 activ inactive.
Cc1nc(OCC(=O)N2CCN(c3ncccn3)CC2)cc(-n2cccn2)n1 was read as GIRK2 activ inactive.
Cc1cc(NC(=O)c2c(F)cccc2F)sn1 was read as GIRK2 activ inactive.
For COc1ccccc1NC(=O)c1cc2c(=O)n3ccccc3nc2n1Cc1ccccc1 the results were GIRK2 activ inactive.
Screening COc1ccc(S(=O)(=O)N2CCC(c3nc(-c4cccs4)no3)CC2)cc1 returned GIRK2 activ inactive.
Screening Cc1ccc(/C=C/S(=O)(=O)N2CC3(COC(C)(C)OC3)C2)cc1 returned GIRK2 activ inactive.
`CN(C)C(CNS(=O)(=O)C1CC1)c1cn(C)c2ccccc12` (configuration not stated) gave GIRK2 activ inactive.
Screening CCc1ccc(NC(=O)COc2cc(C)nc(N3CCN(c4ccccc4)CC3)n2)cc1 returned GIRK2 activ inactive.
For CC(C)N(CC(O)COC1C2(C)CCC(C2)C1(C)C)C(C)C (configuration not stated) the results were GIRK2 activ inactive.
Screening Cn1nc(N2CCC(C(=O)Nc3ncn[nH]3)CC2)ccc1=O returned GIRK2 activ inactive.
`Cc1ccc(COc2ccc(N3CCn4c3nc3c4c(=O)n(C)c(=O)n3C)cc2)cc1` gave GIRK2 activ inactive.
`O=C(c1ccc([N+](=O)[O-])cc1)N1CCc2cc(S(=O)(=O)NC3CCCC3)ccc21` gave GIRK2 activ inactive.
Cc1cc2nn(CC(=O)N3CCOCC3)c(=O)n2c(Nc2ccc(C)c(F)c2)n1 was read as GIRK2 activ inactive.
COc1ccccc1N1CCN(C(=O)c2cc(-c3ccc4c(c3)OCCO4)on2)CC1 was read as GIRK2 activ inactive.
Screening CCCc1cc(NCCOCCO)n2nc3nc(C)cc(C)c3c2n1 returned GIRK2 activ inactive.
For COCCN(Cc1ccsc1)C(=O)c1ccc(F)cc1 the results were GIRK2 activ inactive.
Screening O=C(/C=C/c1ccccc1)Nc1cnc(N2CCCC2)nc1 returned GIRK2 activ inactive.
`COc1cccc(C(=O)Nc2ccc(Cn3cnc(C(=O)Nc4ccc(C)cc4)c3)cc2)c1` gave GIRK2 activ inactive.
Screening Cc1cccc(Cn2c(=O)c3c(nc4n(CCCN5CCOCC5)c(C)c(C)n34)n(C)c2=O)c1 returned GIRK2 activ inactive.
Cc1cc(C)c(S(N)(=O)=O)cc1N(C)S(C)(=O)=O was read as GIRK2 activ inactive.
COc1ccc(Cn2cnc3c4ccccc4n(CC(=O)Nc4cccc(C)c4)c3c2=O)cc1 was read as GIRK2 activ inactive.
For COc1ccccc1C(=O)NC1CCN(C(=O)c2cn(-c3ccc(Cl)cc3)nn2)CC1 the results were GIRK2 activ inactive.
`CCOc1cc(/C=C(\C#N)c2nc(-c3ccccc3)cs2)ccc1OC(C)C` gave GIRK2 activ inactive.
`O=C1C(=O)N(c2nccs2)C(c2ccc(Cl)cc2)C1=C(O)c1ccc(Cl)cc1` (configuration not stated) gave GIRK2 activ inactive.
Cn1c(=O)c2cc(C(=O)Nc3ccc4c(c3)OCCO4)sc2n(C)c1=O was read as GIRK2 activ inactive.
`O=C(Cc1ccc(NC(=O)C2(c3cccs3)CCCC2)cc1)NCc1cccs1` gave GIRK2 activ inactive.
Cc1nc(SCc2csc(C)n2)c2c3c(sc2n1)CCCC3 was read as GIRK2 activ inactive.
`COc1ccc(-c2ccc(N3CCCC(C(=O)NN4CCN(C)CC4)C3)nn2)cc1` (configuration not stated) gave GIRK2 activ inactive.
Screening Cc1ccc(C(CNC(=O)C(=O)Nc2nccs2)N(C)C)cc1 (configuration not stated) returned GIRK2 activ inactive.
Screening COc1ccc(-c2ccc(SCC(=O)NCC3CCCO3)nn2)cc1OC (configuration not stated) returned GIRK2 activ inactive.
Cc1ccn(-c2ccc(NCCNC(=O)c3cc(-n4cccn4)nc(C)n3)nn2)n1 was read as GIRK2 activ inactive.
For CC1(C)C2CCC1(CS(=O)(=O)N1CCN(Cc3ccccc3)CC1)C(=O)C2 (configuration not stated) the results were GIRK2 activ inactive.
`O=C(c1ccccc1Cl)N1CCN(c2ccc(-c3noc(C(F)(F)F)n3)cn2)CC1` gave GIRK2 activ inactive.
For Cn1nnnc1SCC(=O)N1CCN(C(=O)C2CC2c2ccccc2)CC1 (configuration not stated) the results were GIRK2 activ inactive.
For COc1ccc(CNc2nccn(Cc3ccc(Cl)cc3)c2=O)cc1OC the results were GIRK2 activ inactive.
For CCOc1ccc(-c2ccc(=O)n(Cc3nc(-c4cc(OC)cc(OC)c4)no3)n2)cc1 the results were GIRK2 activ inactive.
`O=C(Nc1ccc(-c2ccn[nH]2)cc1)C1CC(=O)N(c2ccc(F)cc2)C1` (configuration not stated) gave GIRK2 activ inactive.
Screening COCCNC(=O)Cc1ccc(NC(=O)CSCc2ccccc2)cc1 returned GIRK2 activ inactive.
Screening COc1ccc2nc(CN3CCN(C(=O)c4ccc5nsnc5c4)CC3)[nH]c2c1 returned GIRK2 activ inactive.
COc1cc(-c2noc(-c3cn(-c4cccc(C)c4)c(=O)c4ccccc34)n2)cc(OC)c1OC was read as GIRK2 activ inactive.
`Cc1ccc(S(=O)(=O)c2cnc(N3CCN(c4ccccc4Cl)CC3)nc2N)cc1` gave GIRK2 activ inactive.
Cc1cn2c3c(=O)n(Cc4ccccc4)c(=O)n(C)c3nc2n1CCOCCO was read as GIRK2 activ inactive.
For C/C=C/Cn1c(=O)c2c(nc3n2CCCN3c2cc(C)ccc2OC)n(C)c1=O the results were GIRK2 activ inactive.
Cc1nc(NCCNS(=O)(=O)c2cccc(Cl)c2)cc(-n2cccc2)n1 was read as GIRK2 activ inactive.
Cc1cc(C)n(CC2CCN(S(=O)(=O)/C=C/c3ccccc3)CC2)n1 was read as GIRK2 activ inactive.
Screening COCC(C)NS(=O)(=O)CCNC(=O)c1ccc(OC)cc1 (configuration not stated) returned GIRK2 activ inactive.
Screening Cc1ccc(-c2nnc(NC(=O)CCS(=O)(=O)Cc3ccccc3)o2)c(C)c1 returned GIRK2 activ inactive.
`COc1ccc(Cn2c(C(C)C)nc3oc4cc(OC)ccc4c(=O)c3c2=O)cc1` gave GIRK2 activ inactive.
`OC[C@H]1O[C@@H](n2cnc3c(N[C@H]4CCC[C@@H]4O)ncnc32)[C@@H](O)C1O` (some centres not stated) gave GIRK2 activ inactive.
`COc1ccc(NC(=O)Cn2nc3ccc(-c4ccccc4)nn3c2=O)cc1OC` gave GIRK2 activ inactive.
CC(=O)Cn1c(=O)c2c(nc3n(-c4cc(C)ccc4C)c(C)cn23)n(C)c1=O was read as GIRK2 activ inactive.
Screening Cc1nc(C)c(C(=O)Nc2cnc(N(C)C)nc2)s1 returned GIRK2 activ inactive.
Screening O=C(NCC1(c2ccc(F)cc2)CC1)c1ccc(Br)o1 returned GIRK2 activ inactive.
`CCOc1ccc(N2C(=O)N(Cc3cc(=O)n4ccccc4n3)c3ccccc3S2(=O)=O)cc1` gave GIRK2 activ inactive.
`CCOC(=O)Cc1csc(NC(=O)Cc2cc(-c3cc4ccccc4o3)on2)n1` gave GIRK2 activ inactive.
For COc1ccc(CC(C)(O)CNC(=O)c2cccc(C(F)(F)F)c2)cc1 (configuration not stated) the results were GIRK2 activ inactive.
Screening CCc1noc(-c2ccc(SCC(=O)N3CCN(c4cccc(C)c4C)CC3)nc2)n1 returned GIRK2 activ inactive.
For O=C(COc1ccc(Cl)cc1Cl)NCC1CCN(c2ccccn2)CC1 the results were GIRK2 activ inactive.
Screening COc1ncc(NC(=O)Nc2ccc3c(c2)OCO3)cn1 returned GIRK2 activ inactive.
For O=C(Cn1c(=O)c(CNc2ccccc2)cc2cc3c(cc21)OCCO3)NCc1ccccc1 the results were GIRK2 activ inactive.
Screening O=S(=O)(c1cccc(C(F)(F)F)c1)N1CCC2(CC1)OCCCO2 returned GIRK2 activ inactive.
Screening CNC(=O)CSc1ncc(-c2cccc([N+](=O)[O-])c2)n1-c1ccc(OC(F)F)cc1 returned GIRK2 activ inactive.
`Cc1ccc(-c2ccc(S(=O)(=O)Nc3ccc(F)cc3)cc2)cc1` gave GIRK2 activ inactive.
`COC(=O)c1cc(OC)c(OC)cc1NC(=O)CSc1nnc(C)c2ccccc12` gave GIRK2 activ inactive.
`CCOC(=O)C(CC)Sc1c(CC)cnc2c1c(=O)n(C)c(=O)n2C` (configuration not stated) gave GIRK2 activ inactive.
COc1ccc(Nc2nc(N3CCC(C(N)=O)CC3)nc3n[nH]nc23)cc1 was read as GIRK2 activ inactive.
For CCN1CCN(C(=O)c2cc3c(=O)n(C)c(=O)n(C)c3n2Cc2ccco2)CC1 the results were GIRK2 activ inactive.
`COc1ccc(N2CCN(CCCn3c(C)cn4c5c(=O)[nH]c(=O)n(C)c5nc34)CC2)cc1` gave GIRK2 activ inactive.
Screening O=C(CCc1csc(NC(=O)c2ccc(=O)[nH]c2)n1)NCc1ccccn1 returned GIRK2 activ inactive.
Cc1ccc(-n2nnc(C(=O)NCc3cccs3)c2-c2ccncc2)cc1C was read as GIRK2 activ inactive.
Screening Cn1nc(C2CCN(CC(=O)Nc3ccc4c(c3)OCCO4)CC2)n(-c2ccccc2)c1=O returned GIRK2 activ inactive.
For O=C(Nc1cc(N2CCOCC2)ncn1)C1CC(=O)N(c2cccc(Br)c2)C1 (configuration not stated) the results were GIRK2 activ inactive.
Screening O=C(/C=C/c1ccccc1)N1CCOC(c2cc(Cl)cc(Cl)c2)C1 (configuration not stated) returned GIRK2 activ inactive.
Cc1nc(C)n2c(=O)n(CC(=O)Nc3cc(C(F)(F)F)ccc3Cl)nc2c1C was read as GIRK2 activ inactive.
`COC(=O)c1ccc(NC(=O)C(=O)NCCCn2ccnc2-c2ccccc2)cc1` gave GIRK2 activ inactive.
For O=C(NC12CC3CC(CC(C3)C1)C2)N1CCC(CSc2ccccn2)CC1 the results were GIRK2 activ inactive.
For Cc1nnc(C2CCCN(C(=O)Cn3cnc4ccccc43)C2)s1 (configuration not stated) the results were GIRK2 activ inactive.
Cc1cc(NC(=O)c2ccc(N(C)C)cc2)n(-c2nc3ccccc3s2)n1 was read as GIRK2 activ inactive.
Screening COc1ccc(S(=O)(=O)Nc2ccc(C(=O)Nc3sc4c(c3C(N)=O)CCC(C)C4)cc2)cc1 (configuration not stated) returned GIRK2 activ inactive.

Molecules shown so far with a Cl atom, in the order listed:
O=S(=O)(c1cccc(Cl)c1)N1CC(Oc2nc3ccccc3s2)C1 was read as GIRK2 activ inactive.
For COc1ccccc1C(=O)NC1CCN(C(=O)c2cn(-c3ccc(Cl)cc3)nn2)CC1 the results were GIRK2 activ inactive.
`O=C1C(=O)N(c2nccs2)C(c2ccc(Cl)cc2)C1=C(O)c1ccc(Cl)cc1` (configuration not stated) gave GIRK2 activ inactive.
`O=C(c1ccccc1Cl)N1CCN(c2ccc(-c3noc(C(F)(F)F)n3)cn2)CC1` gave GIRK2 activ inactive.
For COc1ccc(CNc2nccn(Cc3ccc(Cl)cc3)c2=O)cc1OC the results were GIRK2 activ inactive.
`Cc1ccc(S(=O)(=O)c2cnc(N3CCN(c4ccccc4Cl)CC3)nc2N)cc1` gave GIRK2 activ inactive.
Cc1nc(NCCNS(=O)(=O)c2cccc(Cl)c2)cc(-n2cccc2)n1 was read as GIRK2 activ inactive.
For O=C(COc1ccc(Cl)cc1Cl)NCC1CCN(c2ccccn2)CC1 the results were GIRK2 activ inactive.
Screening O=C(/C=C/c1ccccc1)N1CCOC(c2cc(Cl)cc(Cl)c2)C1 (configuration not stated) returned GIRK2 activ inactive.
Cc1nc(C)n2c(=O)n(CC(=O)Nc3cc(C(F)(F)F)ccc3Cl)nc2c1C was read as GIRK2 activ inactive.

Screening data (PubChem BioAssay)
